Screening data as filed in PubChem.
Calb biofilm kill: mixture kills Candida albicans biofilm cells; inhibition, % at 7.6 µM; AID 1242; actives 0.02% (n = 120,000); C. albicans biofilm persisters + clotrimazole, fluorescence viability; primary screen in compound mixtures of four per well;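 active means inhibition above 30.3% in the primary screen of four-compound pools, then above 30% when the compound was retested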;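 further: compounds exposed to preformed 24 h biofilms for 48 h; the number belongs to the whole pool; some results filed as inactive read as strong as hits; inactives centre near 12; 0% = biofilm with clotrimazole alone and 100% = kill control; retested singly at about 60 µM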
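Incubation: 24 h biofilm formation, then 48 h compound exposure, 37 °C | Material: C. albicans biofilms | Buffer or medium: RPMI/MOPS medium, pH 7.0 | Measured by: 2-h Alamar Blue fluorescence, 535/590 nm excitation/emission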
Numbers without * were called inactive. This is a subset; count on the stated rates, not on these rows.

| Structure | Calb biofilm kill |
| --- | --- |
| Cc1ccc(Nc2ncnc3c2cnn3C)cc1 | 16.9 |
| Cc1c(Cl)c([N+](=O)[O-])nn1Cc1ccc(C(=O)N/N=C\c2ccccn2)o1 | 19.8 |
| CCN(CC)CCCN(Cc1cc2cc3c(cc2[nH]c1=O)OCO3)C(=S)Nc1ccc(OC)cc1 | 18.5 |
| CCCCCC(=O)C(=O)c1ccc(O)cc1O | 16.9 |
| O=C(N1CCOCC1)n1cnc2ccccc21 | 11.1 |
| Cc1ccc2nc(NC(=O)c3cc(-c4ccco4)nc4ccccc34)sc2c1 | 8.5 |
| COC(=O)c1ccc(C(=O)OC)c(NC(=O)Oc2ccccc2)c1 | 25.4 |
| O=C(Cc1ccc(Cl)cc1Cl)NCC1(N2CCOCC2)CCCCC1 | 10.8 |
| CCOc1ccc(CNC(=O)CCS(=O)(=O)Cc2ccccc2C)cc1OC | 38.0 |
| CN1CCC(=NNC(=O)C(=O)Nc2ccc(F)cc2)CC1 | 7.7 |
| Cc1ccc(NC(=S)NNC(=O)CSc2nc3ccccc3c(=O)n2-c2ccc(C)cc2)cc1 | 22.6 |
| COc1ccc(Cn2c(-c3ccc(Cl)cc3)c[n+]3ccccc23)cc1 | 9.3 |
| O=C(CNC(=O)c1cccc(Cl)c1)N/N=C/c1cccnc1 | 16.7 |
| CCN(CC(=O)NC1CCS(=O)(=O)C1)S(=O)(=O)c1ccc(C)cc1C (stereo unspecified) | 14.7 |
| Cc1c(NC(=S)NC(=O)c2ccco2)c(=O)n(-c2ccccc2)n1C | 11.0 |
| CC(C)(C)c1ccc(/C=C/C(=O)N2CCN(c3ncccn3)CC2)cc1 | 18.7 |
| Cn1c(-c2ccccc2)c[n+]2c1-c1ccccc1C2 | 18.8 |
| O=C(CSc1nnc2ccc(-c3cccnc3)nn12)Nc1ccc(F)cc1F | 20.1 |
| CCC(=O)N/N=C(\C)CC(=O)Nc1ccccc1-c1ccccc1 | 18.6 |
| COc1cc(OC)cc(N(C(=O)C2COc3ccccc3O2)C(C(=O)NC2CCCCC2)c2ccc(O)cc2)c1 (stereo unspecified) | 12.8 |
| O=C(CSc1nc2ccccc2c(=O)n1-c1ccccc1)N1CCc2ccccc21 | 20.3 |
| CCN1CCN(c2nc3c(c(=O)[nH]c(=O)n3C)n2CCCc2ccccc2)CC1 | 19.0 |
| CCOC(=O)c1sc(=S)n(-c2ccccc2)c1N(C(C)=O)C(C)=O | 19.0 |
| COc1cc(OC)c(C(=O)OC(C)C(=O)Nc2cc(C(F)(F)F)ccc2Cl)cc1OC (stereo unspecified) | 10.1 |
| O=C(Nc1ccc(Cl)cc1)Nc1nnc(SCc2ccc(Cl)cc2)s1 | -2.5 |
| O=C(C1CCCCC1)N1CCN=C1SCc1cccc([N+](=O)[O-])c1 | -14.2 |
| COc1ccc(C)cc1NC(=O)C(=O)NNC(=O)COc1ccc(Cl)cc1 | 15.8 |
| Cc1nn(CCCC(=O)NCc2ccccc2)c(C)c1[N+](=O)[O-] | 9.7 |
| CC(=O)Nc1sc2c(c1C(c1ccccn1)N1CCCC1)CCCC2 (stereo unspecified) | -9.7 |
| Cc1cc2c(c(=O)o1)C(CCC1CCCCC1)C(C#N)=C(N)O2 (stereo unspecified) | 19.2 |
| CC(/C=N/NC(=O)c1nn(C)c(C)c1Br)=C\c1ccccc1 | 14.0 |
| Cc1cccnc1NC(=O)/C=C/c1ccc2c(c1)OCO2 | 17.7 |
| O=C(COC(=O)Cn1nnc2ccccc21)Nc1ccccc1Br | 18.6 |
| Cc1cc(NC(=O)CCCN2C(=O)/C(=C/c3cccs3)SC2=S)no1 | -2.1 |
| O=C(c1cc([N+](=O)[O-])ccc1Cl)N1c2ccccc2Sc2ccccc21 | -11.9 |
| O=C(Cc1ccccc1)Nc1ccc(N2CCCCC2)cc1 | 13.9 |
| CCN(CCO)C(=S)Nc1cc(S(=O)(=O)N(C)C)ccc1C | 5.8 |
| O=C(NC12CC3CC(CC(C3)C1)C2)c1ccc(N2CCNCC2)c([N+](=O)[O-])c1 | 17.2 |
| Cc1ccc(SCC(=O)N2CCN(c3ccccn3)CC2)cc1 | 22.1 |
| COc1ccc(C(CC(=O)N2CCCC2)c2c(OC)cc(OC)c3c(-c4ccccc4)cc(=O)oc23)cc1 (stereo unspecified) | 14.9 |
| Cc1ccccc1C(=O)Nc1cccc(NC(=O)c2ncn[nH]2)c1 | 13.0 |
| CCn1cc(C(=O)N2CCc3ccccc32)c(=O)c2cc(S(=O)(=O)N(C)C3CCCCC3)ccc21 | 13.2 |
| Cn1cccc1/C=C1\Cc2ccccc2C1=O | 23.8 |
| CCN(CC(=O)Nc1c(F)cccc1F)C(=O)CCc1c[nH]c2ccccc12 | 7.6 |
| NC(=O)[C@@H]1CCCNc2c(I)cc([N+](=O)[O-])cc2C(=O)N[C@@H](CCC(=O)O)C(=O)N[C@@H](CO)C(=O)N1 | 19.9 |
| Cc1nn(-c2ccc(Cl)cc2)c(Cl)c1/C=C(\C#N)C(N)=O | 12.2 |
| C=CCN(c1ccccc1C(=O)NCC(=O)O)S(=O)(=O)c1ccc(C)cc1 | 14.4 |
| N=c1sccn1CC(=O)Nc1ccc(SC(F)F)cc1 | 16.1 |
| O=C(N/N=C/c1ccsc1)C1CC1 | 4.8 |
| CC(C)Cn1c(N)c(C(=O)CSc2cc(Cl)ccc2Cl)c(=O)n(C)c1=O | 16.5 |
| CCOC(=O)NN1C(=O)c2ccccc2NC1c1ccccn1 (stereo unspecified) | 19.4 |
| COc1ccc(/C=N/N2C(=O)C3C4C=CC(CC4)C3C2=O)c(OC)c1 (stereo unspecified) | 18.0 |
| COC(=O)CNC(c1ccccc1Cl)c1cc(Br)ccc1NS(=O)(=O)c1ccc(C)cc1 (stereo unspecified) | 9.9 |
| Cc1cc(C)nc(NC(=NCCc2c[nH]c3ccccc23)NC(=O)Nc2ccccc2)n1 | 16.7 |
| O=C(CSc1nc2ccc(Nc3nc(N4CCOCC4)nc(N4CCOCC4)n3)cc2s1)N1CCOCC1 | 9.3 |
| COCc1cc(C)nc(N/N=C/c2ccc(-c3cc(C(=O)O)ccc3Cl)o2)c1C#N | -3.4 |
| CC(C)[C@H](NC(=O)c1ccccc1)C(=O)OCC(=O)/C=C1/N(C)c2ccccc2C1(C)C | 5.7 |
| Cc1sc2ncn(/N=C/c3ccco3)c(=O)c2c1C | 9.2 |
| Cc1ccc(NC(=O)C2C3/C=C\CCCCC32)cc1 (stereo unspecified) | 23.1 |
| CCCCCc1ccc(-c2ccc(/C=C/C(=O)O)cc2)nc1 | 15.7 |

Further results follow.
| Structure | Calb biofilm kill |
| --- | --- |
| Cc1c(Cl)cccc1NC(=S)Nn1cnnc1 | 3.9 |
| COc1ccc(NC(=O)N2CCCC2C(=O)NCc2ccc(F)cc2)cc1 (stereo unspecified) | 19.4 |
| CC1CCC2(CC1)SCC(=O)N2c1ccc(F)cc1 (stereo unspecified) | 21.6 |
| Cc1nn(CCOc2ccccc2)c(=O)n1-c1ccc(Cl)cc1 | 13.8 |
| COc1ccc(S(=O)(=O)N2CCCC(C(=O)Nc3ccc4c(c3)OCCO4)C2)cc1 (stereo unspecified) | 4.4 |
| CC1=CC(C)(C)N(C(=O)CSc2nnc(N)s2)c2ccccc21 | 13.9 |
| CSCCCNC(=S)N(C)CC(=O)Nc1ccc(C)cc1 | 12.9 |
| CCOc1ccccc1CN1CCN(Cc2ccon2)CC1CCO (stereo unspecified) | 25.1 |
| Cc1ccc(C(=O)C2CCOC(C)(C)C2)cc1 (stereo unspecified) | 11.8 |
| Cc1coc2cc3oc(=O)c(CCC(=O)O)c(C)c3cc12 | 14.8 |
| CCCCCOc1ccc(C(=O)NCCC(=O)NCCCC(=O)OCC)cc1 | 10.2 |
| Cc1cc(C)nc(SCC(=O)N/N=C/c2cccc([N+](=O)[O-])c2)n1 | 14.9 |
| O=c1[nH]c(SCc2c(Cl)cccc2Cl)nc2ccccc12 | 18.0 |
| Cc1cc(C)n2c(SCC(=O)Nc3ccc(F)cc3F)nnc2n1 | 8.2 |
| O=S(=O)(c1cccc(C(F)(F)F)c1)N1CCN(c2cnccn2)CC1 | 9.2 |
| C/C(=N\NC(=S)Nc1cccc(C)c1)c1cc2ccccc2o1 | -10.9 |
| Cc1nn(-c2ccccc2)c(C)c1/C=N/NC(=O)c1cc(-c2cccs2)[nH]n1 | 8.6 |
| CCn1nnnc1SCC(=O)NC1Cc2ccccc2C1 | 26.2 |
| O=C(CCn1c(=S)[nH]c2ccccc2c1=O)NCCSCc1ccccc1 | 4.4 |
| COc1ccc(/C=C/c2nnc(NC(C)=O)s2)cc1 | 10.6 |

Copied from the results shown, five compounds:
| Structure | Calb biofilm kill |
| --- | --- |
| Cc1c(Cl)cccc1NC(=S)Nn1cnnc1 | 3.9 |
| COc1ccc(NC(=O)N2CCCC2C(=O)NCc2ccc(F)cc2)cc1 (stereo unspecified) | 19.4 |
| CC1CCC2(CC1)SCC(=O)N2c1ccc(F)cc1 (stereo unspecified) | 21.6 |
| Cc1nn(CCOc2ccccc2)c(=O)n1-c1ccc(Cl)cc1 | 13.8 |
| COc1ccc(S(=O)(=O)N2CCCC(C(=O)Nc3ccc4c(c3)OCCO4)C2)cc1 (stereo unspecified) | 4.4 |

Next section.
| Structure | Calb biofilm kill |
| --- | --- |
| NC(=O)C1=C[C@H](C2CCCCC2)C[C@H](OCc2ccc(CO)cc2)O1 | 6.9 |
| CCn1c(SCc2nc3ccccc3c(=O)[nH]2)nnc1C(C)NC(=O)c1ccccc1 (stereo unspecified) | 12.1 |
| CC(CSc1nnnn1-c1ccccc1)Cn1c(N2CCN(C)CC2)nc2c1c(=O)[nH]c(=O)n2C (stereo unspecified) | 8.2 |
| C=C1N(C)c2cc([N+](=O)[O-])c(N)cc2C1(C)C | 9.2 |
| O=NN(CCc1ccncc1)c1ccc(OCc2ccccc2)cc1 | 3.9 |
| CC(=O)NC(c1cccs1)c1cc([N+](=O)[O-])c2cccnc2c1O (stereo unspecified) | 25.2 |
| Cc1nc2ccc(Br)cn2c1C(=O)N/N=C\c1ccccc1[N+](=O)[O-] | 5.2 |
| CCc1c(C)nc2c(Br)cccc2c1SCCC#N | 21.4 |
| Cn1c(-c2cnn(-c3ccccc3)c2N)n[nH]c1=S | 10.1 |
| Cc1cc(C)nc(NC(N)=NC2CCCCC2)n1 | 14.4 |
| COc1ccc(S(=O)(=O)NCC2CCC(C(=O)NCC(OC)OC)CC2)cc1 (stereo unspecified) | -0.2 |
| O=C(/C=C/c1ccco1)Nc1ccc2c(c1)OCCO2 | -6.8 |
| CC(=O)Nc1ccc(S(=O)(=O)NCC(=O)OCC(=O)N2CCN(c3ccccc3)CC2)cc1 | -10.7 |
| CSCCC(C(=O)OC1CCOC1=O)N1C(=O)c2ccccc2C1=O (stereo unspecified) | 8.6 |
| O=C(NC(C(=O)N/N=C/c1ccncc1)c1n[nH]c(=O)c2ccccc12)c1ccccc1 (stereo unspecified) | 12.3 |
| CCCC(c1nnnn1CCOC)N1CCN(Cc2ccccc2)CC1 (stereo unspecified) | 10.4 |
| O=C(NCc1ccccc1)c1cc(-c2cccc(O)c2)on1 | 17.7 |
| Cc1cc(-n2c(C)cc(C(=S)N3CCOCC3)c2C)ccc1Br | 8.8 |
| COc1ccccc1C1CCN(C(=O)c2cccc([N+](=O)[O-])c2)CC1 | 11.5 |
| Cc1ccc(-c2nc3c(c(=O)c4ccccc4n3C)c(=O)n2-c2ccc(F)cc2)cc1 | 22.8 |
| O=C/C=C/c1coc2ccc3ccccc3c2c1=O | 25.1 |
| C/C(CCN1CCCCc2nc(C)c(C)cc21)=N\O[C@H](C)c1cn([C@H](CO)Cc2ccccc2)nn1 | 17.6 |
| Cc1cc(OCC(=O)N(Cc2ccco2)C2CCS(=O)(=O)C2)cc(C)c1Cl (stereo unspecified) | 19.2 |
| O=C(NCC1CC1)Nc1cccs1 | 6.6 |
| COc1ccc(C2Nc3ccc(Br)cc3C(c3ccccc3)N2CC(=O)O)cc1 (stereo unspecified) | 3.0 |
| O=C(O)/C=C/C(=O)Nc1nccs1 | 10.9 |
| CNC(=S)NNC(=O)c1cccn(Cc2ccccc2)c1=O | 10.0 |
| CCOc1nc(NCCO)nc(Nc2ccc([N+](=O)[O-])cc2)n1 | 1.2 |
| COC(=O)c1ccc(-c2ccc(Cl)cc2)nc1C | 14.6 |
| CN1C(N)=NC(=O)/C1=C/c1ccccc1F | 1.4 |
| COc1ccc(C)cc1NC(=O)c1cc2c(CO)cnc(C)c2oc1=N | 12.1 |
| COC(=O)c1c(-c2ccccc2Cl)noc1/C=C/N(C)C | 20.6 |
| O=C(Cn1cnnn1)Nc1cccc(S(=O)(=O)N2CCCCC2)c1 | 10.1 |
| COc1ccc2c(c1)c(C(=O)CN1CCc3ccccc3C1)c(C)n2C | 14.9 |
| O=C(/C=C/c1ccccc1Cl)Nc1cccc(S(=O)(=O)NC2=NCCCCC2)c1 | 7.3 |
| C/C(=N\NC(=S)Nc1ccc(C)cc1)c1cc2ccccc2o1 | 29.3 |
| COc1ccc(CCNC(=O)CNC(=O)Cn2cnc3sc(C)c(C)c3c2=O)cc1OC | 18.6 |
| COc1ccccc1C(=O)Nc1nc2cc3c(cc2s1)OCO3 | 5.3 |
| CCOC(=O)/C(=N\Nc1ccccc1Cl)N(C)C1CCS(=O)(=O)C1 (stereo unspecified) | 7.2 |
| Oc1c(CN2CCOCC2)cc(COCc2ccccc2)c2cccnc12 | 20.4 |
| O=C(NNc1cc(N2CCOCC2)nc(N2CCOCC2)n1)c1ccc(Cl)c(Cl)c1 | 16.8 |
| CN1/C(=C\C(=O)Nc2ccc(Cl)cc2)C(C)(C)c2ccccc21 | 8.0 |
| O=C(NC1=NCCS1)c1cccc2ccccc12 | 12.7 |
| CC(C)NC(=S)Nc1cccc2cnccc12 | 12.6 |
| Cc1c(NC(=O)CSc2ccccc2F)c(=O)n(-c2ccccc2)n1C | 13.3 |
| CC(=O)Nc1ccc(-c2nn[nH]n2)cc1 | 11.7 |
| O=[N+]([O-])c1cc(C(F)(F)F)c(Cl)cc1N1CCN(CCO)CC1 | 20.8 |
